KAT2A inh: qHTS Assay for Inhibitors of GCN5L2. GCN5L2 HAT assay, ThioGlo1 CoA-SH fluorescence. hit rate 0.21% among 390,000. Potency, µM (doses to about 58.9 µM), for the others: at the highest dose activity change, negative = inhibition, usual class: inhibitors; active means well fitted inhibition curve with a large enough effect; inconclusive means small, poorly fitted or top-dose-only effect, or another doubt; inactive means no such curve, though single readings can be large or run the other way
Target sequence (Q92830 whole entry, looked up): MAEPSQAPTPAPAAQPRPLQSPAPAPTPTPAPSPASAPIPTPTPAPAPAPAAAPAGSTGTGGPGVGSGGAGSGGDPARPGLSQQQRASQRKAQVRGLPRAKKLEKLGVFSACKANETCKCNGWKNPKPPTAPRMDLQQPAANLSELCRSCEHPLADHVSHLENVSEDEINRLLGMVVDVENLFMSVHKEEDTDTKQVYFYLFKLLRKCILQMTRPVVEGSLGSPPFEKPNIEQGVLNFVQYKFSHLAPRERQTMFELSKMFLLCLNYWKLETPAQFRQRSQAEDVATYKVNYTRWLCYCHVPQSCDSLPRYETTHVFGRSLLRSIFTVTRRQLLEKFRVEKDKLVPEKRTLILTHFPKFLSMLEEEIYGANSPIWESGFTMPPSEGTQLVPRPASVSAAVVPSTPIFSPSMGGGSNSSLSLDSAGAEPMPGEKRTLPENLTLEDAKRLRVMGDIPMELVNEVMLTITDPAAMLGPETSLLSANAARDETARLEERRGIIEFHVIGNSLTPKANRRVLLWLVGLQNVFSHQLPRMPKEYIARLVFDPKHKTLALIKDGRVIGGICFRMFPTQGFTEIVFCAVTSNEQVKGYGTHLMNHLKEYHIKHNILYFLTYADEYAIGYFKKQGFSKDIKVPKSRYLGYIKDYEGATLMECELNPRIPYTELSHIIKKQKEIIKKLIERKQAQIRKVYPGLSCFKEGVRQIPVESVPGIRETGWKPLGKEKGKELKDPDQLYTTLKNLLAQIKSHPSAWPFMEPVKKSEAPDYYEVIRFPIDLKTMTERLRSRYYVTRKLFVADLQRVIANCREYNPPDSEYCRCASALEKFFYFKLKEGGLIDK
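GCN5L2 (20nM final) in 50mM HEPES, 0.1mM EDTA pH 7.5, 0.01% Tween-20 was preincubated 15 min at room temperature with compound, then given ThioGlo1 (50uM), H3(1-25) peptide (75uM) and acetyl-CoA (70uM); CoA-thiol fluorescence (Ex340/Em540) was read at 0 and 20 min.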
* hit, by the source's call; ? = inconclusive; & = joins results of further samples. On the % scale 0 is the no-effect control and ±100 the full control effect; potency means the concentration at half of the fitted maximal effect. Only part of the results is shown, and most or all hits are left out here.

SMILES	KAT2A inh
Cc1cc(=O)n2nc(N3CCC(C(=O)NCC(C)c4ccccc4)CC3)sc2n1 (configuration not stated)	2%
Cn1ccnc1Sc1nnnn1-c1ccccc1	1%
COCCNC(=O)CSc1nc(-c2ccccc2)[nH]c1-c1ccc(C)cc1	-6%
CC(=O)c1ccccc1NC(=O)CCNC(=O)c1ccco1	?
CC(C)c1c(C(=O)Nc2ccccc2)c(-c2ccccc2)c(-c2ccc(F)cc2)n1CC[C@@H](O)C[C@@H](O)CC(=O)O	-10%
CCNc1nc(Cl)nc(N(NC(C)=O)C(C)CC)n1 (configuration not stated)	1%
O=C(NNc1cccc(Cl)n1)c1c(F)cccc1F	-4%
Cn1cc(S(=O)(=O)Nc2cccc3ccccc23)c(=O)n(C)c1=O	0%
C=CCn1c(N)c(C(=O)Nc2ccccc2OC)sc1=S	-15%
CCn1cc(C(C)(C)C)c(C#N)c1NC(C)=O	-1%
COC(=O)C1=C(C#N)NC(C)=C(C(=O)OC(C)C)C1c1cccc([N+](=O)[O-])c1 (configuration not stated)	-13%
CC(=O)c1cc(-c2ccc(F)cc2)n(CCC(=O)Nc2cccc(C)n2)c1C	-4%
C(=C\CSc1nnnn1-c1ccccc1)/CSc1nnnn1-c1ccccc1	-8%
O=C(CSc1nc(C(F)(F)F)cc(=O)[nH]1)NCC1CCCO1 (configuration not stated)	-3%
CCCCNC(=O)CCn1c(=O)c2ccccc2n(Cc2cccc(Cl)c2)c1=O	-6%
CCOc1ccc(N2CC(c3nc4ccccc4n3CC(C)C)CC2=O)cc1 (configuration not stated)	-10%
CC(C)NC(=O)NC(=O)CSc1nncs1	-4%
CN1C(=O)CSc2ccc(NC(=O)NCCC3=CCCCC3)cc21	0%
COC(=O)Cc1n[nH]c(=S)[nH]c1=O	-4%
Cc1ccc(F)cc1NC(=O)COC(=O)c1ccc2ncsc2c1	1%
COc1ccc(NC(=O)Nc2cc(C(C)(C)C)on2)cc1OC	-3%
O=C(Nc1ccc(OC(F)(F)F)cc1)c1[nH]ncc1[N+](=O)[O-]	-11%
Cc1cccn2c(=O)c(/C=C(\C#N)S(=O)(=O)c3ccccc3)c(N3CCN(Cc4ccccc4)CC3)nc12	-13%
CC(=O)c1ccc(OCC(=O)OC(C)C(=O)NC2CCCCC2C)cc1 (configuration not stated)	-3%
O=C(CC1(CC(=O)N2CCOCC2)CCCC1)Nc1ccc(F)cc1	-4%
CCN(CC)S(=O)(=O)c1cccc(-c2nnc(SCC(=O)N3CCC(C(=O)O)CC3)n2N)c1	-5%
COc1ccc(C2Nc3ccccc3C(=O)N2NS(=O)(=O)c2ccccc2)cc1OC (configuration not stated)	-3%
COCCn1c(SCC(=O)N2CCCC2)nnc1-c1ccoc1C	-5%
CC1CC(=O)Nc2ccc([N+](=O)[O-])cc2N1C (configuration not stated)	22%
Cc1nn(C(C)C)c(C)c1CN1CCCC(C(=O)c2cccc(OC(C)C)c2)C1 (configuration not stated)	-14%
Cc1ccc(C)c(NC(=O)CN(C)C(=O)COc2ccc3ccccc3c2)c1	-1%
COc1ccc(OC)c(NC(=S)NCc2ccccc2OC)c1	-5%
COc1cc(CN2CCNC(=O)C2CC(=O)O)cc(OC)c1 (configuration not stated)	?
COc1cc(C(=O)OCC(=O)NCc2ccccc2)cc(NC(=O)c2ccco2)c1OC	-3%
Cc1cc(C)c2nc3nc(C)cc(C)c3c(N)c2c1	-28%
O=C(NNC1CC(=O)N(c2cccc(Cl)c2)C1=O)c1cccnc1 (configuration not stated)	0%
CCOC(=O)c1c(-c2ccccc2)oc2ccc(O)c(CN(C)C)c12	-2%
O=C(O/N=C1\CCS(=O)(=O)c2sccc21)c1ccc(F)cc1	-4%
CCc1nnc(NC(=O)CSc2ncnc3c2cnn3-c2ccc(OC)cc2)s1	3%
O=C(N/N=C/c1cccnc1)C1CC1(c1ccccc1)c1ccccc1 (configuration not stated)	-6%

Of the compounds above, these contain sulfur.
SMILES	KAT2A inh
Cc1cc(=O)n2nc(N3CCC(C(=O)NCC(C)c4ccccc4)CC3)sc2n1 (configuration not stated)	2%
Cn1ccnc1Sc1nnnn1-c1ccccc1	1%
COCCNC(=O)CSc1nc(-c2ccccc2)[nH]c1-c1ccc(C)cc1	-6%
Cn1cc(S(=O)(=O)Nc2cccc3ccccc23)c(=O)n(C)c1=O	0%
C=CCn1c(N)c(C(=O)Nc2ccccc2OC)sc1=S	-15%
C(=C\CSc1nnnn1-c1ccccc1)/CSc1nnnn1-c1ccccc1	-8%
O=C(CSc1nc(C(F)(F)F)cc(=O)[nH]1)NCC1CCCO1 (configuration not stated)	-3%
CC(C)NC(=O)NC(=O)CSc1nncs1	-4%
CN1C(=O)CSc2ccc(NC(=O)NCCC3=CCCCC3)cc21	0%
COC(=O)Cc1n[nH]c(=S)[nH]c1=O	-4%
Cc1ccc(F)cc1NC(=O)COC(=O)c1ccc2ncsc2c1	1%
Cc1cccn2c(=O)c(/C=C(\C#N)S(=O)(=O)c3ccccc3)c(N3CCN(Cc4ccccc4)CC3)nc12	-13%
CCN(CC)S(=O)(=O)c1cccc(-c2nnc(SCC(=O)N3CCC(C(=O)O)CC3)n2N)c1	-5%
COc1ccc(C2Nc3ccccc3C(=O)N2NS(=O)(=O)c2ccccc2)cc1OC (configuration not stated)	-3%
COCCn1c(SCC(=O)N2CCCC2)nnc1-c1ccoc1C	-5%
COc1ccc(OC)c(NC(=S)NCc2ccccc2OC)c1	-5%
O=C(O/N=C1\CCS(=O)(=O)c2sccc21)c1ccc(F)cc1	-4%
CCc1nnc(NC(=O)CSc2ncnc3c2cnn3-c2ccc(OC)cc2)s1	3%

(next part)
SMILES	KAT2A inh
CCOC(=O)N1CCC(N2Cc3cccc(C(=O)O)c3C2=O)CC1	2%
Cc1nc2sc(C(c3ccc(Cl)cc3)N3CCN(C(=O)c4ccco4)CC3)c(O)n2n1 (configuration not stated)	-12%
COc1ccc(OC)c(C=NNC(=O)c2ccc(NS(=O)(=O)c3cccs3)cc2)c1	-8%
Cc1cc(C)c(NC(=O)Cn2c(=O)n(CC(=O)NCc3ccccc3Cl)c(=O)c3sccc32)c(C)c1	-7%
O=C(NCc1ccco1)C1CCCN(S(=O)(=O)c2ccc(Br)cc2)C1 (configuration not stated)	-10%
Cc1nc2ccccc2nc1CSc1nnc(N)s1	-2%
CCOC(=O)N1CCN(C(=O)C2CCC(=O)N(CCCN3CCCC3=O)C2)CC1 (configuration not stated)	-3%
CC(Sc1nc2ccccc2s1)C(=O)c1c(N)n(C)c(=O)n(C)c1=O (configuration not stated)	-4%
CN(c1ccc(C(=O)N2CCOCC2)cc1)S(=O)(=O)c1cccs1	0%
COc1ccc(-c2ccnc3c(Br)c(C)nn23)cc1	-3%
N#Cc1c[nH]n2c(=O)cc(Cc3ccccc3)nc12	-19%
CCn1c(SCC(=O)Nc2ccc(OC)c(OC)c2)nc2c(c1=O)SCC2	-7%
CC1Cc2cccc3c(O)c(C(=O)c4nn[nH]n4)c(=O)n1c23 (configuration not stated)	-7%
O=C(CSc1nnc(-c2cccs2)n1-c1ccccc1)Nc1ccccc1	-1%
Cc1cccc(OCc2nnc(SCC(=O)N3CCCC3)n2C)c1	-2%
CCOCc1nnc(NC(=O)C2CC(=O)N(C3CCCC3)C2)s1 (configuration not stated)	-4%
CC(C)(C)c1ccc(C(=O)NCCC(=O)NNC(=O)COc2ccc(F)cc2)cc1	3%
COc1ccc(N(CC(=O)NCC2CCCO2)S(=O)(=O)c2ccccc2)cc1OC (configuration not stated)	-3%
COc1cccc(-c2nnc(NC(=O)c3ccc(Cl)s3)o2)c1	-12%
COc1ccc(N(CC(=O)Nc2ccc3c(c2)OCO3)S(=O)(=O)c2ccccc2)cc1	-5%
COc1ccc(Cl)cc1C(=O)Nc1c2c(nn1-c1ccc(Cl)cc1)CS(=O)(=O)C2	1%
COc1ccc(-n2c(SCC#N)nnc2-c2ccc(NS(=O)(=O)c3ccc(C)cc3)cc2)cc1	-13%
O=S(=O)(c1ccc(Cl)cc1)N1CCNCC1	-2%
Cc1ccccc1CCNC(=O)c1ccc2c(c1)nc1n2CCC(C)C1 (configuration not stated)	-9%
COc1ccccc1C(=O)COC(=O)C(CCSC)NC(=O)COc1ccccc1 (configuration not stated)	-4%
Cc1oc(-c2cccs2)nc1CN1CCN(CCC(C)C)C(CCO)C1 (configuration not stated)	-9%
CC1(C)Cc2nc3sc(C(=O)NCCCO)c(N)c3cc2CO1	-3%
O=C(CCC1CCCC1)N1CCC(N2CCN(c3ccccc3)CC2)CC1	-13%
CN(C)C(=O)CN1C(=O)NC2(CCc3ccccc32)C1=O (configuration not stated)	1%
CCN(CC)CCNC(=O)c1ccc(NC(=O)c2cc(-c3ccco3)nc3ccccc23)cc1	-29%
CCCOC(=O)CSC1=C(C#N)C(c2ccccc2Cl)CC(=O)N1 (configuration not stated)	-11%
CCOCCc1nn2c(=O)cc(COC(=O)c3ccccc3NC(=O)c3cccs3)nc2s1	-11%
CCOc1ccc(NC(=O)c2c(Nc3ccccc3C)sc(C(=O)c3ccc(Cl)cc3)c2N)cc1	-8%
C=CCn1cnc2c(nnn2-c2ccc(OC)c(OC)c2)c1=O	-6%
CCc1nnc(NC(=O)CN2C(=O)c3ccccc3S2(=O)=O)s1	1%
Cc1cccc(C(=O)NNC(=O)/C=C/C(=O)O)c1	-2%
CCc1ccccc1NC(=S)N(Cc1ccco1)C(C)c1cccs1 (configuration not stated)	-2%
O=C(Nc1cccc(NC(=O)N2CCN(c3ccccc3)CC2)c1)N1CCN(c2ccccc2)CC1	-4%
Cc1cc(C)c(S(=O)(=O)Nc2ccccc2C(=O)OCC(=O)NCc2ccccc2)c(C)c1	-16%
Cc1ccc(Cn2nnc3c(=O)n(CC(=O)NCc4ccccc4)cnc32)cc1	-2%

Sorted by length of the SMILES (smallest number first): part of the list above
SMILES	KAT2A inh
Cc1ccc(Cn2nnc3c(=O)n(CC(=O)NCc4ccccc4)cnc32)cc1	-2%
CCOCCc1nn2c(=O)cc(COC(=O)c3ccccc3NC(=O)c3cccs3)nc2s1	-11%
O=C(Nc1cccc(NC(=O)N2CCN(c3ccccc3)CC2)c1)N1CCN(c2ccccc2)CC1	-4%

The results go on.
SMILES	KAT2A inh
O=C1c2ccccc2COc2ccc(O)cc21	-2%
COc1ccc(C(=O)NCC(C)CN(C)C)cc1 (configuration not stated)	-6%
O=C(O)CCSc1nnc(SCC(=O)NC2CCS(=O)(=O)C2)s1 (configuration not stated)	-17%
Cc1c(C(=O)NCc2ccco2)oc2ccccc12	-7%
CCn1cc(CNC(=O)C2CCC(=O)N(Cc3ccccc3F)C2)cn1 (configuration not stated)	3%
COC(=O)C1=CO[C@@H](C)[C@H]2CN3CCc4c([nH]c5ccccc45)[C@@H]3C[C@H]12	-2%
COc1ccccc1NC(=O)CSc1nnc(-c2ccccc2C)o1	3%
COc1cc(OC)cc(C(=O)Nc2ccc(-c3nc4ccccc4s3)c(C)c2)c1	2%
COc1ccccc1C(=O)NCCC(=O)NNC(=O)Cn1ccc(C(F)(F)F)n1	1%
Cc1ccc(NC(=O)c2cc(S(=O)(=O)N3CCCCC3)c[nH]2)cc1N(C)C	-12%
O=C(NCc1ccncc1)c1cc(S(=O)(=O)N2CCOCC2)c(Cl)cc1Cl	5%
O=C(O)c1cccc(NS(=O)(=O)c2ccc3nnn(O)c3c2)c1	-4%
COc1ccc(N2CCN(C(=O)/C(C#N)=C/c3ccccc3)CC2)cc1	0%
COc1ccc(NC(=O)CN(C)C(=O)c2ccc(N3CCCC3)c([N+](=O)[O-])c2)cc1	3%
COc1ccc2nc(C)cc(SCC(=O)N/N=C/c3ccco3)c2c1	2%
COc1cc2oc(=O)cc(C)c2c(OC)c1OC	-2%
Cc1ccccc1/C=C/C(=O)NCC(=O)N1CCC(N(C)C2CCCCC2C)CC1 (configuration not stated)	-6%
COc1cccc(-n2c(SCC(=O)NCC3CCCO3)nc3c(c2=O)SCC3)c1 (configuration not stated)	-6%
CCOC(=O)CCNC(=O)CCNC(=O)C(c1ccccc1)c1ccccc1	-3%
Cc1cccc(C(=O)Nc2ccc(N3CCN(C(=O)c4ccco4)CC3)cc2)c1	-3%
Cc1ccc(C)c(N(CC(=O)NCc2ccco2)C(=O)CNS(=O)(=O)c2ccccc2)c1	-4%
O=C(CCCCn1c(=O)c2ccccc2n(Cc2ccccc2)c1=O)NC1CCN(Cc2ccccc2)CC1	-1%
CN1CCN(C(=O)/C(=C/c2ccco2)NC(=O)c2ccccc2)CC1	-8%
CC1(C)CC(=O)c2cc(OCC(=O)O)ccc2O1	-8%
N#Cc1ccc(/C=N/N=C(N)N)cc1	2%
O=C(Nc1nnc(C2CC2)s1)C1Cc2ccccc2CN1S(=O)(=O)c1ccccc1F (configuration not stated)	-19%
COc1cccc(NC(=O)CSc2ccc3nnc(CCNC(=O)c4ccccc4)n3n2)c1	6%
CCOc1ccccc1N1CCN(S(=O)(=O)c2ccc3c4c(cccc24)C(=O)N3)CC1	-12%
CCc1nc(C(N)=O)c2[nH]c(=O)n(-c3ccccc3F)c2n1	-5%
O=C(Nc1ccccc1NS(=O)(=O)c1ccc(F)cc1)C1CCCC1	-11%
COc1ccc(C2CC(c3ccc(Br)cc3)Nc3nc(N)nn32)cc1 (configuration not stated)	-2%
O=C(c1ccc(Br)cc1)N1CCC(c2nc3ccccc3s2)CC1	-16%
CC(O)c1cccc(NC(=O)CCC(=O)O)c1 (configuration not stated)	-10%
CCCn1c2ccccc2c2cnn(CC(=O)NC(C)CC)c(=O)c21 (configuration not stated)	1%&-2%
COC(=O)CCN(C(=O)C1CCN(S(=O)(=O)c2c(C)noc2/C=C/c2ccccc2F)CC1)c1ccccc1	-12%
CCN(CC)C1CC(=O)N(c2ccc(Br)cc2)C1=O (configuration not stated)	-30%
O=S(=O)(c1ccccc1Br)N1CCC(O)(c2cccnc2)CC1	-10%
COc1ccc(/C=N/NC(=O)c2ccc(-c3ccccc3)cc2)cc1O	-2%
Cn1cc(Cl)c(C(=O)OCC(=O)Nc2ccccc2)n1	-8%
COc1cc(Cl)c(NS(=O)(=O)c2ccc(-c3cnc(C4CC4)o3)cc2)c(OC)c1	-3%
